# Screens from PubChem BioAssay.
# PKD1 inh = inhibitors of human PKD1 kinase, biochemical, fluorescence polarization. Serine/threonine-protein kinase D1 (Homo sapiens), Q15139. AID 797, 2007. inhibition, %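 (about 10 µM by stock and volumes)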. PKD1 kinase fluorescence polarization assay. hit rate 0.056% among 200,000;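 active = inhibition of 50% or more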;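 also: controls were vehicle for no effect and a reference inhibitor for full effect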
# Insulin prom inh = inhibitors of insulin promoter-driven GFP, primary screen, imaging, TRM-6 cells (human fetal islet line), eGFP reporter, cell count; reporter expression induced with tamoxifen; inhibition, % at 2 µM; hit rate 0.9% among 130,000;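 active = inhibition above the mean plus 3 SD, with well images judged a real hit on visual review, cut at about 60% in these data, passing the limit was not always enough; inconclusive = inhibition over the cutoff but images rejected on review; inactive = inhibition not above the cutoff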
# GALR2 agonist = GALR2 receptor agonists, primary screen, cell-based; Galanin receptor type 2 (Homo sapiens), O43603; AID 803, 2007; GALR2-expressing cells, agonist activation read-out; hit rate 0.48% among 140,000; activation, %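 (tested at 5 µM)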;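 active = above mean plus 3 SD of all compounds, about 5% in these data, not always enough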;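 also: 0% = vehicle buffer wells and 100% = reference agonist at full effect; tested in CHO reporter cells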
# Target sequence (O43603 whole entry, looked up): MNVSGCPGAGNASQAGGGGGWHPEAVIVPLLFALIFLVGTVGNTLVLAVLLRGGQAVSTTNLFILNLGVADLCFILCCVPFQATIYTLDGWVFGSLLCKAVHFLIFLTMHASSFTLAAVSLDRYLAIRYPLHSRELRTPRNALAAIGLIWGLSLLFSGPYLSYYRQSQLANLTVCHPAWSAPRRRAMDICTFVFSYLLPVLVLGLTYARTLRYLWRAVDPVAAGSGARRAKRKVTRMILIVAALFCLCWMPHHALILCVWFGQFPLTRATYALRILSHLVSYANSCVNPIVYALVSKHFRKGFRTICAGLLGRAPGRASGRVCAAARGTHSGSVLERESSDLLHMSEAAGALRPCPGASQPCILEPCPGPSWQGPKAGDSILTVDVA
# HSV augment = enhancers of HSV replication in host cells, fold increase, host cell viability; HSV replication augmentation in cells; maximum fold increase; hit rate 0.005% among 220,000;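 active = peak rise of 1.5-fold or more in the series; inconclusive = self-fluorescent or not available for retest; tested in PC3 cells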;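 also: first round at 10 µM; read as green reporter fluorescence; hits show the peak of a series up to 25 µM; 1 = signal of infected wells without compound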
# RGS16-Gao HTS = modulators of RGS16 binding to Galphao, primary screen, biochemical, human proteins, multiplexed bead flow cytometry. Regulator of G-protein signaling 16 (Homo sapiens) + Guanine nucleotide-binding protein …. bead-based flow cytometry RGS16-Galphao binding, fluorescence; actives lie on both sides. binding response (% of control), % at 10 µM. hit rate 0.38% among 220,000;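 active = below 25% or above 175%, edge rows of some plates excepted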;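 also: Galphao activated by GDP with aluminum fluoride before binding; 100% = wells without compound and 0% = beads without RGS; some results beyond the cut were filed as inactive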
# Target sequence (O15492 whole entry, looked up): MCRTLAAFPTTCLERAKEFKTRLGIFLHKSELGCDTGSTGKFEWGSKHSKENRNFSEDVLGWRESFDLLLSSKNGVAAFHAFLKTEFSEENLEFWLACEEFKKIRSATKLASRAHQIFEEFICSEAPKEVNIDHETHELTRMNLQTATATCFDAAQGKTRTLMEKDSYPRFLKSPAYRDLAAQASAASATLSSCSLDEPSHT
# Target sequence (P09471 whole entry, looked up): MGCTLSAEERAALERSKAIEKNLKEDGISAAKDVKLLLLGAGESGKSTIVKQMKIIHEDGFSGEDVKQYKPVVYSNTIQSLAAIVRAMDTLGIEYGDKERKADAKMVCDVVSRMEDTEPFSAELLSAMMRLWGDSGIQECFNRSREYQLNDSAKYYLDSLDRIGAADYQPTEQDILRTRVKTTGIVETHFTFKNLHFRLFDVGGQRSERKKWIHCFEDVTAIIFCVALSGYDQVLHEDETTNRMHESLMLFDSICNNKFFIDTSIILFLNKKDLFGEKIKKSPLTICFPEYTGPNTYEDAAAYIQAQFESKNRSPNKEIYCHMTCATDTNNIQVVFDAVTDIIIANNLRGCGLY
# Insulin prom inh cell count = further read-out of Insulin prom inh, marked with its call; normalized cell count, %; measured here: cell count, toxicity; reference of the scale not given here;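 cells exposed to compound for 48 h; stained nuclei by imaging scaled within each plate; lower means fewer cells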
# HSV augment primary fold = recorded beside HSV augment, whose call it bears; fold increase; compound at 10 µM; measured here: primary screen fold increase 10 uM; tested in PC3 cells;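 GFP signal in the first replicate; 1 = infected wells without compound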
# The depositor's hits bear a star; i = inactive; ? = inconclusive; · = not tested or not shown. Compounds were not picked by outcome; about 1.1% have a hit in one of these screens.
# The line under a structure holds: PKD1 inh	Insulin prom inh	Insulin prom inh cell count	GALR2 agonist	HSV augment	HSV augment primary fold	RGS16-Gao HTS
CS(=O)(=O)N1N=C(c2cccs2)CC1c1ccccc1 (stereo unspecified)
  ·	·	·	·	i	0.92	102
CCCOc1ccc(C2C(C(=O)/C=C/c3ccco3)=C(O)C(=O)N2CCN2CCOCC2)cc1OC (stereo unspecified)
  -3	-8	84	·	i	1	100
Cc1nnc(N/N=C/C(C)c2ccccc2)[nH]c1=O (stereo unspecified)
  ·	·	·	·	i	1.1	103
CCC(C)OC(=O)C1=C(C)NC(=O)CC1c1ccccc1OC (stereo unspecified)
  2	9	88	0.1	i	0.86	103
O=C(N1CCOCC1)N1CCN(C(c2ccccc2)c2ccccc2)CC1
  -7	-9	82	-1.1	i	1.1	101
O=S(=O)(/N=C(/c1ccccc1Cl)N1CCOCC1)c1ccccc1
  8	·	·	-0.8	i	1.4	107
Cc1onc(-c2c(F)cccc2Cl)c1C(=O)NNC(=O)C1CCN(Cc2cccc(F)c2)CC1
  1	33	173	·	i	0.97	101
CCCCNS(=O)(=O)c1ccc(NC(=O)c2c(-c3ccccc3Cl)noc2C)cc1
  -10	60	78	-2.0	i	0.92	98
O=C1CCC(C(=O)Nc2cccc3ccccc23)N1 (stereo unspecified)
  2	-31	116	-3.7	·	·	97
N/C(COc1ccc(F)cc1)=N\NC(=O)c1cccnc1Oc1ccccc1
  -4	-2	149	-1.0	i	1	101
Cc1ccc(C(=O)N2CC3(C(C)C)CN(C(=O)c4ccc(C)cc4)CC(C(C)C)(C2)C3=O)cc1
  -10	18	109	-3.8	·	·	101
O=C1CCCC(O)=C1N=Nc1c(Cl)cc(Cl)cc1Cl
  -4	·	·	-2.3	i	0.97	101
Cn1c2ccccc2c(=O)c2c(=O)n(Cc3ccco3)c(COc3ccccc3)nc21
  0	-73	122	1.7	?	·	100
COc1ccc(C2=Nc3ccccc3OC2)cc1
  3	-14	121	-3.5	i	1.1	97
COC(=O)C1=C(C)NC(=O)NC1c1ccc(-c2ccc(Cl)cc2)o1 (stereo unspecified)
  -5	·	·	·	i	1.1	107
Cn1c(=O)[nH]c(=O)c2c1nc(N1CCCCCC1)n2CCOc1ccccc1
  -8	-42	118	·	i	0.98	102
COC(=O)c1[nH]c2cc(OC)ccc2c1NC(=O)CN1CCN(c2cccc(C)c2)C(C)C1 (stereo unspecified)
  -5	·	·	-2.8	i	0.7	106
C=CCn1c(O)c(N=NC(=O)CNC(=O)/C=C/c2ccco2)c2ccccc21
  2	29	155	0.6	i	0.85	92
CCc1ccccc1NC(=O)Nc1ccc2c(c1)OCO2
  7	·	·	·	i	1	105
COc1ccc(OC)c(C2CC(c3ccc(NS(C)(=O)=O)cc3)=NN2C(=O)c2ccccc2)c1 (stereo unspecified)
  -7	0	55	·	i	1	101

# Results in RGS16-Gao HTS and GALR2 agonist (three entries from above):
molecule,RGS16-Gao HTS,GALR2 agonist
O=C1CCCC(O)=C1N=Nc1c(Cl)cc(Cl)cc1Cl,101,-2.3
Cn1c2ccccc2c(=O)c2c(=O)n(Cc3ccco3)c(COc3ccccc3)nc21,100,1.7
COc1ccc(C2=Nc3ccccc3OC2)cc1,97,-3.5

# (list continues)
# The line under a structure holds: PKD1 inh	Insulin prom inh	Insulin prom inh cell count	GALR2 agonist	HSV augment	HSV augment primary fold	RGS16-Gao HTS
COc1ccc(OC)c(NC(=O)C(=O)NNC(=O)COc2ccc(Br)cc2C)c1
  -4	·	·	·	i	1.1	111
O=C(Nc1ccccc1C(=O)NCc1ccc(Cl)cc1)c1ccco1
  -1	-52	33	-1.8	·	·	104
Cn1c(=O)[nH]c(=O)c2c1nc(Br)n2CCCCSc1nc2ccccc2o1
  -4	-44	117	0.0	i	1	105
CNC(=O)c1ncnnc1N(C)C(=O)NCc1ccccc1
  -5	·	·	-1.7	i	0.73	104
O/N=C(\COc1ccccc1O)c1ccccc1
  -2	·	·	-3.5	i	0.91	105
COc1ccc(-n2c(Cc3cc(=O)[nH]c(=O)[nH]3)nnc2SCC(=O)NC2CCCC2)cc1
  -5	·	·	-3.6	i	0.89	103
CCc1cc2ccc(OC)cc2nc1SCC(=O)NNC(=O)c1ccco1
  0	·	·	·	i	0.95	96
O=C(NNc1cc(Cl)ccc1Cl)c1c(F)cccc1Cl
  ·	·	·	·	i	1.2	93
COc1ccc(N2CCN(CC(=O)N3N=CCC3c3ccccc3)CC2)cc1 (stereo unspecified)
  9	-23	98	-0.2	i	1.1	106
C/C(Cc1ccccc1)=N\NC(=O)CNC(=O)Cc1ccc(Cl)cc1
  ·	·	·	·	i	0.85	101
CCCC(C)NC(=O)COC(=O)c1ccc(Cl)c(S(N)(=O)=O)c1 (stereo unspecified)
  -2	3	193	-1.7	i	0.99	101
Cc1cc(C)n2nc(SCC(=O)c3cc(C)n(CC4CCCO4)c3C)nc2n1 (stereo unspecified)
  -1	·	·	·	i	1.1	101
COc1ccc(-c2c([C@H]3[C@H]4C=CC[C@@H](C)[C@@H]4C(=O)N3Cc3ccccc3)ccc3ccccc23)cc1
  ·	·	·	·	i	0.94	115
O=C(Nc1cccc(Cl)c1)c1cc(N=Nc2ccc([N+](=O)[O-])cc2Cl)ccc1O
  ·	·	·	·	i	0.67	101
Cc1ccc(Cn2c(=O)c3c(nc4n3CCN4Cc3ccco3)n(C)c2=O)cc1
  0	-5	116	-0.5	i	0.87	103
CCCCCCOC(=O)C1=C(C)NC(=O)NC1c1ccc(O)cc1 (stereo unspecified)
  -1	12	93	-0.6	i	0.95	103
O=C(OCC(=O)N1CCCCC1)c1cc2ccccc2cc1O
  14	14	101	0.1	i	1	97
CS(=O)(=O)N1CCC(Oc2ccccc2C(=O)N2CCNC(=O)C2)CC1
  9	·	·	·	i	0.98	81
O=C(NC1CCCC1)C1CCCN(S(=O)(=O)c2cccc3cccnc23)C1 (stereo unspecified)
  -13	·	·	-1.3	i	1	103
CCCCC(=O)NC(c1ccccc1Cl)c1c(O)ccc2ccccc12 (stereo unspecified)
  -7	16	100	-1.0	i	0.94	100
O=C(O)CC(NC(=O)Cc1ccccc1)c1cc([N+](=O)[O-])ccc1Cl (stereo unspecified)
  1	10	130	·	i	1	100
O=C(CSc1nc(-c2ccco2)cc(C(F)(F)F)n1)NC1CCCC1
  -2	·	·	-2.4	i	0.84	110
O=C(NCc1ccco1)c1cc2n(n1)C(C(F)(F)F)CC(c1ccc(F)cc1)N2 (stereo unspecified)
  7	26	89	-1.1	i	0.89	99
Cc1ccccc1OCc1nc2ccccc2c(=O)n1/N=C/c1cccc([N+](=O)[O-])c1
  -2	53	95	-1.2	i	1.1	100
COc1ccc(S(=O)(=O)n2oc(=O)cc2-c2ccccc2)cc1OC
  -2	-4	108	-1.2	i	1	103
NC(=O)C1(c2ccccc2)CCCN1C(=O)c1ccc(Br)cc1 (stereo unspecified)
  -5	-82	79	·	i	0.86	109
Cc1ccc(/C=C2\CCC(C3CCCC3)C2=O)cc1 (stereo unspecified)
  -10	-25	88	0.1	i	0.96	99
S=c1[nH]nc(Cc2cccc3ccccc23)n1-c1ccccc1
  -4	3	123	0.5	i	0.87	98
N#CC1(c2ccccc2)CCCN1C(=O)c1ccccc1Br (stereo unspecified)
  -1	17	78	-1.2	i	0.87	106
CCCCCn1nc(C)c(/C=N/NC(=O)c2ccoc2C)c1C
  7	93*	84*	-1.6	i	0.94	103
Cc1nn(-c2ccccc2)c(NC(=O)c2cccs2)c(-c2ccc(Cl)cc2)c1=O
  -6	-8	139	-0.3	i	0.95	101
Cc1nc2cc(NCc3cccs3)ccc2n1C
  -7	8	93	·	·	·	103
CCOc1cc(CNc2ccccc2)cc(Br)c1OCc1ccc(F)cc1
  0	27	58	-2.6	i	1.1	96
Cn1c(=O)n(C)c2cc(S(=O)(=O)NCCc3ccccc3)ccc21
  -9	·	·	-1.4	i	1.1	95
Cc1cc(C(=O)OCn2nnc3ccccc3c2=O)c(C)o1
  2	11	97	-3.1	i	0.89	99
Cc1cc(C)c(C)c(S(=O)(=O)N2CCN(CC(=O)NC(=O)NCc3ccccc3)CC2)c1C
  -5	15	108	-1.4	i	0.9	100
CCc1ccc(-c2cc(C(F)(F)F)n3nc(C(=O)Nc4c(C)nn(Cc5ccccc5Cl)c4C)cc3n2)s1
  2	29	53	-0.4	i	1	97
CCC(=O)c1ccc(N2CCN(C(=O)c3ccccc3Br)CC2)c(F)c1
  -2	37	82	·	i	1.1	105
CC1(C)CC(=O)C(C=Nc2ccccc2C(=O)O)=C(O)C1
  13	-27	97	-3.0	i	0.83	64
O=C(N/N=C1\CC(c2ccccc2)Oc2ccccc21)c1ccccn1 (stereo unspecified)
  -3	·	·	·	i	0.9	97

# Four of the compounds above, with tabs.
Structure	PKD1 inh	Insulin prom inh	Insulin prom inh cell count	GALR2 agonist	HSV augment	HSV augment primary fold	RGS16-Gao HTS
Cc1nn(-c2ccccc2)c(NC(=O)c2cccs2)c(-c2ccc(Cl)cc2)c1=O	-6	-8	139	-0.3	i	0.95	101
Cc1nc2cc(NCc3cccs3)ccc2n1C	-7	8	93	·	·	·	103
CCOc1cc(CNc2ccccc2)cc(Br)c1OCc1ccc(F)cc1	0	27	58	-2.6	i	1.1	96
Cn1c(=O)n(C)c2cc(S(=O)(=O)NCCc3ccccc3)ccc21	-9	·	·	-1.4	i	1.1	95

# Laid out differently: results already given
molecule: O=C(NNc1cc(Cl)ccc1Cl)c1c(F)cccc1Cl
  PKD1 inh: ·	Insulin prom inh: ·	Insulin prom inh cell count: ·	GALR2 agonist: ·	HSV augment: i	HSV augment primary fold: 1.2	RGS16-Gao HTS: 93
molecule: COc1ccc(N2CCN(CC(=O)N3N=CCC3c3ccccc3)CC2)cc1 (stereo unspecified)
  PKD1 inh: 9	Insulin prom inh: -23	Insulin prom inh cell count: 98	GALR2 agonist: -0.2	HSV augment: i	HSV augment primary fold: 1.1	RGS16-Gao HTS: 106

# Later entries:
# The line under a structure holds: PKD1 inh	Insulin prom inh	Insulin prom inh cell count	GALR2 agonist	HSV augment	HSV augment primary fold	RGS16-Gao HTS
N#Cc1ccc2c(c1)NC(=O)C1CCCN21 (stereo unspecified)
  -2	-92	88	·	i	0.75	95
COc1ccc(C2C(C(=O)NCc3ccco3)c3ccccc3C(=O)N2C)cc1 (stereo unspecified)
  -1	53	100	·	i	1	98
Cc1cc(-c2ccc(Cl)s2)n[nH]1
  -10	12	96	-1.5	·	·	97
CCc1nc(NC(C)C)c2oc3ccccc3c2n1
  -3	89*	136*	-1.8	i	0.93	97
CN(Cc1nc2c(s1)CCCC2)C(=O)CCc1nnc(-c2ccccc2)o1
  -5	·	·	·	i	1.1	98
Cc1ccc(-c2nc3cnccn3c2Nc2c(C)cccc2C)o1
  2	·	·	0.7	i	1	98
O=C(C1CCN(S(=O)(=O)c2cccc3cccnc23)CC1)N1CCn2c1nc1ccccc12
  10	·	·	-0.9	·	·	100
C=CCN(C)CC/C=C1\c2ccccc2CSc2ccccc21
  -4	-95	60	-0.1	i	1	101
COc1cc(C(=O)O/N=C2\CCCc3c2ccc(OC)c3[N+](=O)[O-])cc(OC)c1OC
  -8	-38	291	-3.0	·	·	100
CCCCCCn1c(CN2CCN(C)CC2)nc2c1c(=O)n(C)c(=O)n2C
  8	57	115	-0.2	i	0.74	94
Cc1ccc(NC(NC(=O)c2cccs2)C(Cl)(Cl)Cl)cc1C (stereo unspecified)
  -6	12	97	-1.6	i	0.89	116
CCCC(=O)Nc1ccc(C)c(O)c1
  4	29	162	-2.2	i	0.92	111
CC(=O)c1ccc(OCC(O)CN(C)Cc2cccs2)cc1 (stereo unspecified)
  -2	43	97	-2.1	i	0.91	104
CC(=O)Nc1cccc(Nc2nc(-c3ccccc3F)nc3ccccc23)c1
  11	50	147	·	i	0.66	101
COc1cc(N/N=C/c2ccccc2O)ncn1
  2	-11	90	-1.1	i	0.99	60
O=C(NCc1ccco1)C1CCN(c2ccc(S(=O)(=O)N3CCOCC3)cc2[N+](=O)[O-])CC1
  -5	·	·	·	i	0.97	102
